Screening results: PubChem BioAssay, National Center for Advancing Translational Sciences (NCATS)
ClpP mod: qHTS Assay for Activators of ClpP; actives 1.9% (n = 340,000); Potency, µM (doses to about 57.5 µM), without a hit: top-dose activity change, negative = active; purified B. subtilis ClpP, FRET peptide cleavage, 20 min; active = well fitted falling curve with a large enough effect; inconclusive = small, poorly fitted or top-dose-only effect; inactive = no such curve, though single readings can be large or run the other way; note: potency is the fitted concentration of half-maximal effect; the source files actives as falling curves though it sought activators and does not explain the sign; nearly all actives have a fitted effect of over 65% in size; many hits overshoot -100%
Target sequence (P80244 whole entry, looked up): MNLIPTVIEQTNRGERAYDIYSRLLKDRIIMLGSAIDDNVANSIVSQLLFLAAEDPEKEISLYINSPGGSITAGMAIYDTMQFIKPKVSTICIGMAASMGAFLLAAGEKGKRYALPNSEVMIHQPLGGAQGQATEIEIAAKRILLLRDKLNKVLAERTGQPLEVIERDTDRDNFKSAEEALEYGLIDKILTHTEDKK
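ClpP 10 microg/mL final, pH 8 Tris/KCl buffer with BSA, glycerol, Tween-20; compound pinned in; FRET-FV substrate; RT 20 min; Ex320/Em430; ΔFRET vs ADEP 5.8 microM, DMSO, no enzyme.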
Menin-MLL FL inh: qHTS Assay for Inhibitors Targeting the Menin-MLL Interaction in MLL Related Leukemias: Competition With Fluorescein Labeled MLL-derived Peptide; Fluorescence polarization, fluorescein-MLL peptide displacement from menin; FP activity change, % at 61.4 µM; 290,000 tested, under 10 active; AID 1766, 2009; inconclusive = falling polarisation curve, or a change in total fluorescence; inactive = total fluorescence flat and polarisation flat or rising; no compound was filed as active; the % refers to the polarisation; negative = inhibition;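 note: % of control where 0% means no effect; inhibitors lower the polarisation; unlabelled MLL peptide was the positive control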
gsp ag: qHTS for Agonist of gsp, the Etiologic Mutation Responsible for Fibrous Dysplasia/McCune-Albright Syndrome: qHTS; gsp mutant cells, cAMP HTRF, 30 min; control for the full effect not named in the record; Potency, µM (series often up to 76.9 µM), without a hit: at the highest dose activation (cAMP increase), usual class: activators; actives 0.13% (n = 340,000); AID 624287, 2012; active = well fitted activation curve with a large enough effect; inconclusive = small, poorly fitted or top-dose-only effect, or another doubt; inactive = no such curve, though single readings can be large or run the other way; cell line not stated here;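 note: phosphodiesterase inhibitor Ro 20-1724 added with compounds to block cAMP breakdown; potency is the fitted concentration of half-maximal effect; nearly all actives have a fitted effect of over 60% in size; about a fifth of the inactives were tested at one dose only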
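Cells stably selected in G418 were plated at 2000/well, grown 16-24 hr, then given compounds in DMSO with the PDE inhibitor […] (300 uM solution added) for 30 min at 37C; cAMP was read by HTRF.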
gsp antag: qHTS for Antagonists of gsp, the Etiologic Mutation Responsible for Fibrous Dysplasia/McCune-Albright Syndrome: qHTS. gsp-mutant cells, cAMP HTRF, 30 min; control for the full effect not named in the record. Potency, µM (highest dose often 76.9 µM), for the others: top-dose activity change, negative = inhibition, hits mostly inhibitors. actives 0.4% (n = 340,000); active = falling curve of any shape with a large fitted effect; inconclusive = falling curve, mostly with a smaller effect; inactive = flat or rising curve; cell line not stated here;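 note: intracellular cAMP measured with PDE inhibitor Ro 20-1724 present during compound exposure; potency is the fitted concentration of half-maximal effect; % is set by controls: 0 for no effect and ±100 for the full control effect; nearly all actives have a fitted effect of over 65% in size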
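Measurement of cellular cAMP by homogeneous time-resolved fluorescence following a 30 min compound exposure at 37C. The PDE inhibitor […] was present throughout; the assay buffer was DPBS with 0.05% BSA and 0.005% Tween 20.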
Sfp inh: qHTS Assay for Inhibitors of Bacillus subtilis Sfp phosphopantetheinyl transferase (PPTase). 4'-phosphopantetheinyl transferase ffp (Bacillus subtilis), Q9F4F7. Biochemical Sfp PPTase activity, qHTS. Potency, µM, for the others: max response, negative = inhibition, most hits filed as inhibitors. actives 3.5% (n = 310,000); active = well fitted inhibition curve with a large enough effect; inconclusive = small, poorly fitted or top-dose-only effect, or another doubt; inactive = no such curve, though single readings can be large or run the other way;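 note: the enzyme is Sfp with the accession as filed and its product quenches rhodamine fluorescence; potency is the fitted concentration of half-maximal effect; 0% = enzyme reaction without inhibitor and -100% = no enzyme wells; top concentration of the series not given in the record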
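After 15 min at room temperature with compound, 15 nM Sfp received 5 uM rhodamine-CoA plus 12.5 uM BHQ-2-ybbR (50 mM Hepes pH 7.6, 10 mM MgCl2). Rate came from the fluorescence difference over 30 min, ex 525/em 598 nm.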
PINK1 expr mod: A Quantitative High throughput Screen to Identify Chemical Modulators of PINK1 Expression | Potency, µM (titrated, usually from 76.6 µM), inactives show at the top dose activation (PINK1 increase), actives largely listed as activators | AID 624263, 2012 | PINK1 immunofluorescence, high-content cytometry, 24 h | actives 0.2% (n = 410,000); active = well fitted activation curve with a large enough effect; inconclusive = small, poorly fitted or top-dose-only effect; inactive = flat fitted curve, though single readings scatter; cell line not stated here;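 note: potency is the fitted concentration of half-maximal effect; % of control where 0% means no effect; nearly all actives have a fitted effect of over 65% in size; a mitochondrial uncoupler was the plate control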
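Readout is PINK1 immunofluorescence, quantified alongside mitochondrial, cell and nuclear markers by laser-scanning microplate cytometry. Cells from a stable line were exposed to compound titrations (5 concentrations) for 24 hours, with CCCP controls.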
D2 agonist: Beta-Arrestin HTS for Positive Allosteric Modulators of the Human D2 Dopamine Receptor: Agonists | activation, % (test concentration not listed) | DiscoveRx PathHunter D2 beta-arrestin, luminescence, 90 min; 100% = 57 uM dopamine signal | actives 0.084% (n = 360,000); in the data active = activation above about 40%; inconclusive = about 15% to 40%; inactive = below about 15%; note: compound concentration not given in the record; the text of the record calls up to 30% inactive
Target sequence (P14416 whole entry, looked up): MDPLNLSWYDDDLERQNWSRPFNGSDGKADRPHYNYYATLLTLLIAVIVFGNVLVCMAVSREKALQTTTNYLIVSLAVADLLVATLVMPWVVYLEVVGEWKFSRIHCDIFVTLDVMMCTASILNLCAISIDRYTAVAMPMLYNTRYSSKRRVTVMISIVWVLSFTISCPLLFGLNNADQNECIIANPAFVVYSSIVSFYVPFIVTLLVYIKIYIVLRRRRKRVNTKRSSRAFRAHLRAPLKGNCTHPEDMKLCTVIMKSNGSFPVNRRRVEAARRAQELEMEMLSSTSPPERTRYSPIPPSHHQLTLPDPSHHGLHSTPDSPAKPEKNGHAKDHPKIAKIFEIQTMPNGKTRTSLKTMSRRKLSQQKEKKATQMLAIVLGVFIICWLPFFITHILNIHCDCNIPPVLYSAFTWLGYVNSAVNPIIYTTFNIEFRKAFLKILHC
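DiscoveRx PathHunter D2 beta-arrestin cells (2,100/well) attached overnight, then compound-stimulated 90 min at 37 C in HBSS/10 mM HEPES/0.1% Tween-20 buffer; beta-galactosidase complementation read by luminescence after 1 h at ambient temperature. Dopamine 57 uM final (EC100) as control.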
Starred values were filed as active, the others as inactive; & = joins results of further samples; [ ] = dose if it differs, or a comment.

Screening COc1cc(C#Cc2ccc3cc(CCO)oc(=O)c3c2)cc(OC)c1 returned ClpP mod 3.9%, gsp antag -11%, PINK1 expr mod 4.4% and D2 agonist 2.1.
CC(C)CCNC(=O)NC(=O)COC(=O)/C=C/c1cnc2ccccc2n1 was read as ClpP mod 0.6%, Menin-MLL FL inh -0.2, gsp ag 2%, gsp antag -17%, Sfp inh 16%, PINK1 expr mod 14% and D2 agonist -1.2.
Screening Cc1csc(NC(=O)c2ccc3c(=O)n4c(nc3c2)CCCCC4)n1 returned ClpP mod 0.7%, Menin-MLL FL inh 3.9, gsp ag -14%, gsp antag -15%, Sfp inh 14%, PINK1 expr mod 0.7% and D2 agonist 0.9.
For COc1ccc(C(=O)c2ccc(N3CCN(C4CC(=O)NC4=O)CC3)cc2)cc1F (stereo unspecified) the results were ClpP mod -1.3%, Menin-MLL FL inh -1.9, gsp ag -9%, gsp antag -31%, Sfp inh -7%, PINK1 expr mod 1.1% and D2 agonist -1.2.
`CCn1cc(SCC(=O)NCC2CCCO2)c2ccccc21` (stereo unspecified) gave ClpP mod -0.3%, Menin-MLL FL inh 0.2, gsp ag -13%, gsp antag -1%, Sfp inh -2%, PINK1 expr mod 0.3% and D2 agonist -1.6.
`CN(C)c1ccc(NC(=O)c2cccc([N+](=O)[O-])c2)c2ccccc12` gave Menin-MLL FL inh 11, gsp ag -63%[inhibitor], gsp antag -16%, Sfp inh 24%, PINK1 expr mod -0.8% and D2 agonist 2.6.
For CCOC(=O)Cn1cnc2c(nnn2-c2ccc(C)cc2)c1=O the results were ClpP mod -0.7%, Menin-MLL FL inh 3.1, gsp ag 16%, gsp antag 4%, Sfp inh 6%, PINK1 expr mod -2.3%[38.3 µM] and D2 agonist -2.0.
`NS(=O)(=O)c1cccc(NC(=O)COC(=O)CC2Sc3ccccc3NC2=O)c1` (stereo unspecified) gave ClpP mod -0.4%, gsp ag -32%[inhibitor], gsp antag -3%, PINK1 expr mod -0.2% and D2 agonist 4.3.
Screening O=C(CSC1CS(=O)(=O)c2cc([N+](=O)[O-])ccc21)NNC(=O)c1ccc(Cl)cc1 (stereo unspecified) returned Menin-MLL FL inh 3.5, gsp ag -7%, gsp antag -1%, Sfp inh -8%, PINK1 expr mod -1.0% and D2 agonist 3.0.
Screening Cc1cc(C)nc(NC(=O)/C=C/c2ccc3c(c2)OCO3)c1 returned ClpP mod 16%, Menin-MLL FL inh 3.5, gsp ag 18%, gsp antag -13%, Sfp inh 14%, PINK1 expr mod 16% and D2 agonist 3.7.
Screening O=C(NCCCN1CCOCC1)C1CCN(S(=O)(=O)c2ccccc2)CC1 returned ClpP mod inconclusive, gsp ag 15%[15.4 µM], gsp antag 3%, PINK1 expr mod -0.7% and D2 agonist -1.9.
COCC(=O)N1CCCC(C(=O)c2ccc3c4c(cccc24)CC3)C1 (stereo unspecified) was read as ClpP mod 3.5%, Menin-MLL FL inh 3.3, gsp ag -28%, gsp antag -8%, Sfp inh 3%, PINK1 expr mod 2.0% and D2 agonist -1.3.
Screening COc1ccc(CNC(=O)CN(Cc2ccc(C)cc2)S(=O)(=O)c2ccc(Cl)cc2)cc1 returned ClpP mod 0.9%, Menin-MLL FL inh 0.8, gsp ag 1%, gsp antag -36%, Sfp inh 27%, PINK1 expr mod -0.4% and D2 agonist -2.8.
COC(=O)c1ccc(Oc2nc(C(N)=O)cc(-c3ccccc3)n2)cc1 was read as ClpP mod 6.0%, Menin-MLL FL inh -1.9, gsp ag -42%[inhibitor], gsp antag -9%, Sfp inh -22%, PINK1 expr mod 1.2% and D2 agonist -3.6.
CCOC(=O)c1cc(-c2cccs2)nn1CCC#N was read as ClpP mod -3.5%, Menin-MLL FL inh 2.1, gsp ag 3%, gsp antag -4%, Sfp inh -6%, PINK1 expr mod 0.0% and D2 agonist 0.4.
For COc1ccc(-c2nnc(CSc3ncnc4sc5c(c34)CCC5)o2)cc1OC the results were ClpP mod 5.0%, Menin-MLL FL inh 4.8, gsp ag -37%[inhibitor], gsp antag -12%, Sfp inh -9%, PINK1 expr mod -2.1% and D2 agonist -2.3.
For Nc1ncc(-c2cc3ccccc3oc2=O)s1 the results were ClpP mod -1.2%, Menin-MLL FL inh -0.8, gsp ag -4%, gsp antag -13%, Sfp inh -27%, PINK1 expr mod -0.7% and D2 agonist -3.5.
`CCCCCCC(=O)Nc1nc(C)c(-c2csc(Nc3cc(Cl)ccc3OC)n2)s1` gave ClpP mod 1.2%, Menin-MLL FL inh 6.7, gsp antag 10%, Sfp inh -11%, PINK1 expr mod 1.9% and D2 agonist -2.8.
Screening Cc1nc(SCc2ccccc2)c(C(F)(F)F)c(=O)[nH]1 returned ClpP mod -0.6%, Menin-MLL FL inh -7.3, gsp ag -1%, gsp antag 7%, Sfp inh -5%, PINK1 expr mod 0.9% and D2 agonist -2.9.
For Cc1cc(C)cc(C(=O)Oc2coc(CSc3nnc(NC(=O)C4CC4)s3)cc2=O)c1 the results were ClpP mod 1.3%, Menin-MLL FL inh 0.2, gsp ag 4%, gsp antag 3%, Sfp inh -5%, PINK1 expr mod 3.3% and D2 agonist -0.6.
CC(NC(=O)COC(=O)CSc1ccc(F)cc1)c1ccc(F)cc1 (stereo unspecified) was read as ClpP mod 48%, gsp ag -6%, gsp antag 10%, PINK1 expr mod 1.8% and D2 agonist -5.1.
Screening Cn1cc(S(=O)(=O)Nc2cccc3ccccc23)c(=O)n(C)c1=O returned ClpP mod -1.7%, Menin-MLL FL inh -2.0, gsp ag -1%[15.4 µM], gsp antag 1%, Sfp inh 11%, PINK1 expr mod -0.4% and D2 agonist -0.3.
Screening Cc1ccc2nc(C)c3c(c2c1)SCC3 returned Menin-MLL FL inh 4.1, gsp ag 0%[15.4 µM], gsp antag -3%, Sfp inh -4%, PINK1 expr mod -0.8% and D2 agonist 3.0.
Screening C/C(=N\NC(=O)CCC(=O)NCc1ccccc1)c1ccc([N+](=O)[O-])cc1 returned ClpP mod -3.2%, gsp ag -33%[inhibitor], gsp antag -2%, PINK1 expr mod -1.3% and D2 agonist 1.5.
`CCN(CC)N=Nc1ccc(S(=O)(=O)Nc2nc(C)cc(C)n2)cc1` gave ClpP mod 1.2%, Menin-MLL FL inh 1.3&-21, gsp ag 7%&2%, gsp antag 1%&-10%, Sfp inh 6%&1%, PINK1 expr mod 3.8%&0.1% and D2 agonist -1.1&-7.5.
N#CCCCc1cc2ccccc2cn1 was read as ClpP mod -4.3%, gsp antag -3%, PINK1 expr mod -1.2% and D2 agonist -1.3.
O=C(COC(=O)c1ccc(O)cc1)Nc1cc(S(=O)(=O)N2CCOCC2)ccc1N1CCOCC1 was read as ClpP mod -0.8%, gsp ag -3%, gsp antag -28%, PINK1 expr mod 0.5% and D2 agonist 5.1.
COc1cc(/C=C/C(=O)Nc2nnc(CC(C)(C)C)s2)cc(OC)c1OC was read as ClpP mod 1.0%, Menin-MLL FL inh -1.2, gsp ag -7%[15.4 µM], gsp antag 17%, Sfp inh 45µM*, PINK1 expr mod 13% and D2 agonist 0.5.
Screening CC(=O)Nc1ccccc1C(=O)C(=O)Nc1cccc(C(=O)NCC2CCCO2)c1 (stereo unspecified) returned ClpP mod -7.2%, Menin-MLL FL inh -1.5, gsp ag -17%[15.4 µM], gsp antag -7%, Sfp inh -2%, PINK1 expr mod 0.5% and D2 agonist 12.
Screening COc1ccc(S(=O)(=O)N2CCCOC2CNC(=O)C(=O)NCc2ccccn2)cc1 (stereo unspecified) returned ClpP mod -1.0%, Menin-MLL FL inh 9.9, gsp ag -9%, gsp antag -1%, Sfp inh 1%, PINK1 expr mod -0.6% and D2 agonist -1.4.
For O=C1OC(c2cccs2)=N/C1=C\c1ccc(-c2ccccc2Cl)o1 the results were ClpP mod 0.8%, Menin-MLL FL inh 8.0, gsp ag 27%, gsp antag inconclusive, Sfp inh -12%, PINK1 expr mod -1.9%[38.3 µM] and D2 agonist -3.2.
`COc1cc2c(cc1N)-c1ccc(N)cc1C2=O` gave ClpP mod -5.1%, gsp ag -1%, PINK1 expr mod -1.5% and D2 agonist -1.6.
`CCN(Cc1ccccc1)C(=O)c1ccc(C(=O)N(CC)Cc2ccccc2)cc1` gave ClpP mod -1.5%, Menin-MLL FL inh 0.3, gsp ag inconclusive, gsp antag -16%, Sfp inh 14%, PINK1 expr mod 3.8% and D2 agonist -6.7.
For CCCCNC(=O)Nc1ccccc1CC the results were ClpP mod 4.0%, Menin-MLL FL inh 0.7, gsp ag 17%, gsp antag 12%, Sfp inh 18%, PINK1 expr mod 0.1% and D2 agonist -1.0.
O=C(CN1CCCc2ccccc21)Nc1cccc(S(=O)(=O)N2CCOCC2)c1 was read as ClpP mod 1.3%, gsp ag 10%[15.4 µM], gsp antag 5%, PINK1 expr mod 0.7% and D2 agonist 5.0.
For COCC(C)OC(=O)c1c(N)n(CC(C)C)c2nc3ccccc3nc12 (stereo unspecified) the results were ClpP mod 44%, Menin-MLL FL inh -1.5, gsp ag 7%, gsp antag 16%, Sfp inh -3%, PINK1 expr mod 0.8% and D2 agonist -3.9.
`COc1ccc(C2NC(=S)NC3=C2CCCC3=C2SCCS2)cc1` (stereo unspecified) gave Menin-MLL FL inh 0.3, gsp ag -6%[15.4 µM], gsp antag -6%, Sfp inh 16%, PINK1 expr mod 5.5% and D2 agonist -7.3.
